# Ecoli rRNA inh: selective bacterial rRNA inhibition in E. coli; E. coli WT GFP vs humanized-ribosome RFP mutants, fluorescence, 24 h; active compounds read low; DMSO median 0, no signal -100; GFP signal change (wild-type ribosome), % (test concentration not listed); 350,000 tested, 1.6% active;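 active = significant combined selectivity score with lowered wild-type GFP, culture density cut under 30%, mutant RFP and density less affected; inactive = any of these conditions unmet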; also: one replicate is shown; some compounds called inactive have numbers as strong as hits
# FGF22 binding: FGF22 (human) thermal shift binding; recombinant FGF22 thermal shift, SYPRO orange fluorescence; percent of sucrose octasulfate shift, DMSO zero; Q9HCT0; 340,000 tested, 1.5% active; calls only at 9.99 µM;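 active = melting point raised past a set limit in the mean and every replicate; three in four hits are not shown here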
# Target sequence (Q9HCT0 whole entry, looked up): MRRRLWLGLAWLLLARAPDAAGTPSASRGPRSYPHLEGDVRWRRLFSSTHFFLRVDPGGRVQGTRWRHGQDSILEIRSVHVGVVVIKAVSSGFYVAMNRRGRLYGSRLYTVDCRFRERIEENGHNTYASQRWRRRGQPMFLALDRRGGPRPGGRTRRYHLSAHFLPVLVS
# T cruzi inh: blocks replication of Trypanosoma cruzi; T. cruzi beta-gal in NIH3T3, luminescence, 90 h; inhibition, % (no concentration beside the values); 300,000 tested, 1.4% active; AID 1885;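 active = mean inhibition across valid replicates above about 55%, limit read from the data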;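 also: signal also drops with host cell toxicity which is not excluded here; 0% = plate median of DMSO wells and 100% = zero luminescence signal; higher percent means less beta-gal luminescence so fewer parasites; stock transfer was 50 nL into about 50 µL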
# Beta cell apopt: beta cell apoptosis inhibition | 300,000 tested, 0.8% active | INS-1E cytokine-induced death, ATP luminescence, 48 h; percent of positive-control rescue, neutral wells zero | protection from apoptosis, % (test concentration not listed);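 active = all replicates at 75% or more, or half of them and the mean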;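 also: 0% = cytokine-treated negative control wells and 100% = positive control rescue; higher means more ATP so stronger rescue from cytokine killing; wells of about 40 µL received 100 nL stock; the first replicate is given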
# UCH37 DUB inh: blocks the human deubiquitinase UCH37. 330,000 tested, 0.33% active. purified proteasome/UCH37, Ub-AMC cleavage fluorescence. Q9Y5K5. inhibition, % (concentration not given with the values);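 active = mean of two replicates above 20%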;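 also: 0% = compound-free wells with enzyme and 100% = wells lacking proteasome; stock transfer was 100 nL into about 20 µL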
# Target sequence (Q9Y5K5 whole entry, looked up): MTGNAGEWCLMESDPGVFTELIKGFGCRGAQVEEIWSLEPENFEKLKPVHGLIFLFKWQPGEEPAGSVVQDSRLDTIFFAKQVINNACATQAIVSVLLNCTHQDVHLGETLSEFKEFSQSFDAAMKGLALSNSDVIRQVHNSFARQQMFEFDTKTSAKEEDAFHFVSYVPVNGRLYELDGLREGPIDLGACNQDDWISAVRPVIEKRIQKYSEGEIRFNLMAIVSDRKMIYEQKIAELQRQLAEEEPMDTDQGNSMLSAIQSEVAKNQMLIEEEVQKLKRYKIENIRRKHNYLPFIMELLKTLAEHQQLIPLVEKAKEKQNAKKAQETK
#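 Reagent: Ub-AMC substrate; assay system: Proteasome-associated human UCH37 deubiquitinase; controls: no-proteasome and no-compound wells; read-out: % inhibition of Ub-AMC cleavage fluorescence; timing: 30 min preincubation with enzyme, 25 min cleavage at room temperature; signal: AMC fluorescence from Ub-AMC cleavage, excitation 355 nm, emission 460 nm; buffer or medium: Tris-HCl pH 7.4 plus ovalbumin, ATP-MgCl2, DTT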
# Bfl-1 A1 inh: inhibitors of the anti-apoptotic protein A1, read as caspase activation. 330,000 tested, 0.066% active. caspase activation, % (no concentration beside the values). MEF A1-2A-BIM cells, Caspase-Glo 3/7 luminescence, 3 h; percent of clofoctol response, vehicle zero;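 active = over half of replicate activation scores above 10%, or exactly half above 10 with the replicate mean above 10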;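 also: wells of about 30 µL received 50 nL stock; many hits fall short of the cut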
# Ecoli growth: E. coli growth inhibition; Escherichia coli growth, OD600, 23 h; active compounds read low; OD600 absorbance (test concentration not listed); 330,000 tested, 0.21% active;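 active = OD600 absorbance below the run mean of sample wells minus 3.6 SD, in any replicate, cut at about 0.56 in these data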;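 also: stock transfer was 300 nL into about 60 µL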
# MLL AF4-AF9 inh: inhibitors of human MLL-AF4/AF9 interaction | AID 651704 | 350,000 tested, 0.47% active | inhibition, % at 10 µM | AlphaScreen, biotin-AF4 peptide binding to FLAG-AF9;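 active = every replicate reaching a set inhibition limit, whatever the replicate mean, cut at about 25% in these data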;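 also: 0% = plate neutral control median and 100% = total signal loss; the record names both 10 and 1 µM as test concentration; the first replicate is given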
# Target sequence (P42568 whole entry, looked up): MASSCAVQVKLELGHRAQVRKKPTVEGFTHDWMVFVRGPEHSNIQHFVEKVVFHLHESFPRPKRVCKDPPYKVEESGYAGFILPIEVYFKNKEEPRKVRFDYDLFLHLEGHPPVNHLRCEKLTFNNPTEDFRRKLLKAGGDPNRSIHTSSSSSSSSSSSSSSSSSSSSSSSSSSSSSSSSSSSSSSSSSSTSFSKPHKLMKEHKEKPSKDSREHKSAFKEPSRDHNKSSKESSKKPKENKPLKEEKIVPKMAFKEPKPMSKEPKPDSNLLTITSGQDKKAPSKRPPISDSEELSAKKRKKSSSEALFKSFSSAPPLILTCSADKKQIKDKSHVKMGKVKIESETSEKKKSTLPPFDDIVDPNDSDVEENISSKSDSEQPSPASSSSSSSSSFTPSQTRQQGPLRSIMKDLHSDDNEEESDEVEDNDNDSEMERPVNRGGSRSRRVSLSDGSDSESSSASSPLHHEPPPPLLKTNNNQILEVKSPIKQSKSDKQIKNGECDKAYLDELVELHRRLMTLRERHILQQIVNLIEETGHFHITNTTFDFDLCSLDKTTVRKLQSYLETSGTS
# Ecoli rRNA inh OD600: recorded beside Ecoli rRNA inh, whose call it bears; OD600 change, %; measured here: OD600 growth;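 optical density of the mix in the first replicate; 0 = DMSO median and -100 = no signal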
# Ecoli rRNA inh RFP: also measured in Ecoli rRNA inh; calls as there; RFP signal change, %; measured here: RFP humanized mutant strains;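 first replicate; 0 = DMSO median and -100 = no signal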
# Active calls of the source: *; i = inactive; nt = no result given. An excerpt, so the mix of outcomes need not match the whole.
molecule	Ecoli rRNA inh	FGF22 binding	T cruzi inh	Bfl-1 A1 inh	MLL AF4-AF9 inh	Ecoli rRNA inh RFP	UCH37 DUB inh	Ecoli growth	Beta cell apopt	Ecoli rRNA inh OD600
O=C(CSc1ccc(Cl)cc1)Nc1nnc(-c2ccco2)o1	-56	nt	-6	0.1	0.0	-18	5.5	0.64	1	-74
CCOC(=O)N1CCN(C(=O)c2ccc(N3CC4CC(C3)c3cccc(=O)n3C4)c(NC(=O)c3ccc(F)cc3)c2)CC1 (stereo not given)	-4	i	26	0.7	1.6	-4.9	4.9	0.7	-7	4
CCN(CC)C(=O)CN1CCC(c2nc3cc(C)c(C)cc3[nH]2)CC1	21	i	-10	-0.2	1.1	3.2	2.1	0.64	1	5
Cc1ccccc1-n1nc(-c2ccc(N)cc2)cc1N	nt	nt	23	2.1	nt	nt	4.3	0.69	-3	nt
CC(C)N(Cc1ccccc1)C(=O)COC(=O)c1cnc(Cl)c(Cl)c1	-38	i	nt	1.1	-14	-3.0	3.0	0.68	5	-66
COc1ccc(CCNC(=O)c2oc3ccc(S(=O)(=O)N4CCOCC4)cc3c2C)cc1OC	nt	nt	-1	0.2	nt	nt	-0.2	0.71	1	nt
O=C(CSC1=NCCS1)N1CCCC1	nt	nt	-11	-0.2	nt	nt	-0.7	0.76	1	nt
Cc1ccc(-c2ccc(=O)n(CC(=O)NCCN3C(C)CCCC3C)n2)cc1 (stereo not given)	nt	nt	2	0.5	nt	nt	-7.2	0.69	-1	nt
CC(NS(=O)(=O)c1ccc(Br)cc1)C(=O)NCCc1ccccc1 (stereo not given)	nt	nt	-4	1.0	nt	nt	0.1	0.74	1	nt
COc1ccc(N2C(=O)/C(=C3/C=CC=CN3C)SC2=S)cc1	26	i	3	0.5	5.3	-12	14	0.69	-3	12

# Ordered by number of heavy atoms (rising): some entries from above.
molecule	Ecoli rRNA inh	FGF22 binding	T cruzi inh	Bfl-1 A1 inh	MLL AF4-AF9 inh	Ecoli rRNA inh RFP	UCH37 DUB inh	Ecoli growth	Beta cell apopt	Ecoli rRNA inh OD600
CC(NS(=O)(=O)c1ccc(Br)cc1)C(=O)NCCc1ccccc1 (stereo not given)	nt	nt	-4	1.0	nt	nt	0.1	0.74	1	nt
CCN(CC)C(=O)CN1CCC(c2nc3cc(C)c(C)cc3[nH]2)CC1	21	i	-10	-0.2	1.1	3.2	2.1	0.64	1	5
COc1ccc(CCNC(=O)c2oc3ccc(S(=O)(=O)N4CCOCC4)cc3c2C)cc1OC	nt	nt	-1	0.2	nt	nt	-0.2	0.71	1	nt

# Going on with the list:
molecule	Ecoli rRNA inh	FGF22 binding	T cruzi inh	Bfl-1 A1 inh	MLL AF4-AF9 inh	Ecoli rRNA inh RFP	UCH37 DUB inh	Ecoli growth	Beta cell apopt	Ecoli rRNA inh OD600
COc1ccccc1/C=C/C(=O)OCC(=O)Nc1c(C)nn(-c2ccccc2)c1C	-9	i	nt	0.9	-2.8	4.2	-47	0.7	1	-13
O=C1NC(=O)C(c2ccccc2)N1 (stereo not given)	34	i	nt	nt	-1.4	1.9	3.5	0.68	nt	18
CC1CCCC(C)N1C(=O)COC(=O)C1CCN(S(=O)(=O)c2c(Cl)cccc2Cl)CC1 (stereo not given)	-22	i	0	0.5	-1.2	-0.5	6.5	0.64	-4	-29
CCCc1nc2ccc(N)cc2c(=O)n1Cc1ccccc1Cl	-14	i	-1	-0.8	-3.3	0.0	-96	0.67	1	-6
c1ccc(CCNc2ncnc3c2nnn3Cc2ccccc2)cc1	nt	nt	-11	0.6	nt	nt	3.2	0.75	3	nt
Cc1cccc(C(=O)N2CC(=O)Nc3ccc(F)cc3C2c2ccc(F)cc2)c1 (stereo not given)	4	i	-4	0.2	7.4	-0.1	7.2	0.69	5	-1
CN(CCCC(=O)Nc1ccccc1)S(=O)(=O)c1ccc(Cl)cc1	-4	i	15	0.2	-4.4	-3.2	2.8	0.69	-10	-18
O=C(Nc1ccc2c(c1)OCO2)Nc1ccc(F)cc1F	nt	i	0	0.0	-1.2	nt	1.7	0.69	10	nt
c1ccc2c(NC3C4CC5CC(C4)CC3C5)nc(N3CCOCC3)nc2c1 (stereo not given)	-55	i	55*	-0.4	0.1	-21	-114	0.64	20	-76
CC(=O)c1ccc(NC(=O)CSc2nccn2CCc2ccccc2)cc1	nt	nt	-5	-0.1	nt	nt	4.5	0.67	2	nt
Cc1cccc(-n2cnc(C(=O)N3CCN(C)CC3)c2)n1	7	i	-3	-7.1	-0.1	2.5	1.8	0.67	-2	10
OCCCNc1nc(-c2ccc(Cl)cc2)nnc1-c1ccccc1	nt	nt	20	-1.7	nt	nt	5.7	0.69	-1	nt
O=C1c2ccc(Oc3ccc([N+](=O)[O-])cc3)cc2C(=O)N1CCCO	-2	nt	-5	-0.2	0.8	-3.3	2.1	0.67	-1	-14
C=CCn1c(-c2c[nH]c3ccccc23)n[nH]c1=S	nt	nt	0	-0.5	nt	nt	0.7	0.69	-6	nt
CCc1ccccc1OCCCCN1CCCC1	nt	nt	27	-1.1	nt	nt	2.5	0.73	-5	nt
CCOc1ccc2[nH]c(=O)c(CN(CCc3ccccc3)C(=O)N3CCCC3)cc2c1	nt	nt	16	-0.3	nt	nt	-30	0.68	-1	nt
Cc1ccn2cc(-c3cccc(NC(=O)c4cccs4)c3)nc2c1	-36*	i	6	-5.1	-2.5	-3.2*	0.2	0.66	11	-11*
COc1ccc([C@@H]2CC=C(C(=O)O)[C@H](c3ccccc3F)N2S(=O)(=O)c2ccccc2C)cc1	-7	nt	nt	-0.4	2.1	-17	4.5	nt	2	-8
CN(CC(=O)O)S(=O)(=O)c1cccs1	nt	nt	-2	2.5	nt	nt	-2.4	0.69	-2	nt
O=C(CSc1ncnc2c1cnn2-c1ccccc1)NC1CCCC1	4	i	0	-3.0	-31	0.1	3.9	0.71	5	20
CCN1C(=NCc2ccco2)N[C@@H](c2cccc(F)c2)C(C(=O)OC)=C1C	0	i	2	1.4	-4.3	6.9	4.1	nt	-8	-3
COC(=O)c1cncn1Cc1ccccc1	5	i	nt	nt	-3.3	-1.3	3.1	0.67	nt	14
CCOC(=O)N1CCN(C(=O)c2ccc(N3CCCC3=O)cc2)CC1	nt	nt	-1	0.4	nt	nt	0.4	0.7	-6	nt
Cc1[nH]ncc1-c1ccccc1Cl	-10	i	-2	0.3	-3.4	-1.6	4.0	0.65	-6	-5
COC(=O)C1=C(C)NC(c2c(O)ccc3ccccc23)C(C(=O)OC)=C1C (stereo not given)	nt	nt	10	0.4	nt	nt	0.1	0.68	12	nt
c1ccc(C[C@H]2CNCCN2CCC23CC4CC(CC(C4)C2)C3)cc1	nt	nt	7	1.4	nt	nt	1.7	nt	10	nt
OC1(c2cccc(C(F)(F)F)c2)CCN(c2ncnc3c2[nH]c2ccccc23)CC1	nt	nt	44	-1.0	nt	nt	-6.8	0.63	31	nt
CCOC(=O)C[C@H]1c2cc(F)ccc2S(=O)(=O)N1Cc1ccc(OC)cc1	nt	nt	-9	-1.6	nt	nt	3.8	nt	-5	nt
COc1cc(C2NC(=O)C(C#N)=C(S)N2c2ccccc2)ccc1OC(C)C (stereo not given)	nt	nt	-1	-0.1	nt	nt	2.2	0.71	-14	nt
CCN(CC(=O)Nc1c(F)cccc1F)C(=O)c1ccc2ccccc2n1	6	i	-12	1.5	-0.2	-1.7	1.8	0.62	-4	1
CCOc1ccccc1OCCC(=O)NNC(=O)Cn1nc(C)cc1C	18	nt	-6	0.2	-0.5	0.7	0.8	0.7	-7	13
COC(=O)c1ccc(NC(=O)CCc2nnc3ccc(NCc4ccco4)nn23)cc1	4	i	1	-0.5	2.1	0.1	1.1	0.64	2	4
O=C(CCCOc1ccccc1)N1CCc2ccccc2C1	nt	nt	-4	-0.8	nt	nt	8.9	0.71	-2	nt
COc1cccc(/C=C2\SC(=O)N(CC(=O)NC3C=CS(=O)(=O)C3)C2=O)c1 (stereo not given)	15	i	-4	0.5	-5.0	5.1	-0.1	0.72	-9	10
O=C(/C=C/c1ccccc1)NC(=S)NNC(=O)c1cccnc1	nt	nt	-8	-0.2	nt	nt	7.5	0.72	0	nt
COc1ccc(-c2[nH]ncc2N=Nc2ccccc2)cc1	-60	i	6	-0.1	11	-24	4.1	0.68	-14	-77
O=C(O)c1ccc(-n2nc(C(F)(F)F)cc2-c2cccs2)cc1	-3	nt	-8	0.2	-2.6	-6.0	4.5	0.68	-4	-26
COc1ccccc1C(=O)Nc1nnn(C)n1	nt	nt	-1	-0.2	nt	nt	-1.1	0.7	-2	nt
Cc1cc(Cl)ccc1C(=O)C1CCCN(C(=O)c2cnn(C(C)C)c2)C1 (stereo not given)	-10	i	12	-0.2	5.7	0.9	2.1	0.7	-4	-5
CN(C)S(=O)(=O)c1ccc(N2CCCC2)c(C(=O)Nc2ccccc2F)c1	3	nt	-3	0.2	0.6	0.1	1.8	0.65	-3	2
Cc1ccc(N2CC(C(=O)Nc3ccc4c(c3)OCO4)CC2=O)cc1C (stereo not given)	9	i	-9	-0.3	-1.5	-1.3	-0.5	0.65	-1	9
Cc1ccc(Cn2nc(C)c(NC(=O)C3(C)CC3(Br)Br)c2C)cc1 (stereo not given)	nt	nt	-8	1.7	nt	nt	1.8	0.68	1	nt
O=C(Oc1ccc(-c2ccccc2)cc1)C1C2CCCCC21 (stereo not given)	5	i	-1	-0.4	-4.4	1.0	-0.5	0.67	-7	6
O=C(Nc1cc(=O)[nH]c(=O)[nH]1)c1cccc(C(F)(F)F)c1	-2	i	-9	1.0	2.7	1.6	4.2	0.7	-2	10
COc1ccc(OC)c(-c2csc3nnc(SCC(=O)Nc4ccc(NC(C)=O)cc4)n23)c1	-1	i	-13	0.3	6.5	-8.5	-0.4	0.69	-4	-5
Cc1cc(C)n(-c2ccc(C(=O)Nc3ccc4c(c3)OCCO4)cc2)n1	nt	nt	-3	-0.4	nt	nt	-5.1	0.72	8	nt
O=C(NC1CCCCCC1)C1CCN(C(=O)c2ccc(Cl)cc2)CC1	8	i	nt	0.1	-0.3	-2.2	4.2	0.67	0	6
CC(C)[C@H](NC(=O)c1ccccc1)C(=O)OCC(=O)NCC1CCCO1 (stereo not given in full)	10	i	nt	-1.1	8.3	2.1	-3.0	0.67	-2	7
CCn1cc(S(=O)(=O)c2ccc(C)cc2)c(=O)c2cc(F)c(N3CCN(C)CC3)cc21	-8	i	7	0.5	1.1	-0.9	-69	0.69	-8	-2
CCOCCCn1c(SCC(=O)Nc2oc(C)c3c(C)n[nH]c(=O)c23)nnc1-c1ccncc1	6	i	-6	-0.4	-50	-0.2	4.3	0.65	3	6
CCCCNC(=O)/C(=C/c1ccco1)NC(=O)c1ccco1	15	i	-5	-0.4	-16	5.1	-1.5	0.66	0	10
Cc1nn(C2CCS(=O)(=O)C2)c(C)c1CN(C)C(=O)c1ccc(S(=O)(=O)N(C)C)cc1 (stereo not given)	5	i	nt	0.2	-1.3	0.0	4.9	0.72	2	13

# Bioassay records deposited in PubChem BioAssay by several laboratories.
